Assay outcomes (PubChem)
Calb biofilm kill: mixtures killing C. albicans biofilm | C. albicans biofilm persisters + clotrimazole, fluorescence viability; primary screen in compound mixtures of four per well | inhibition, % at 7.6 µM | actives 0.02% (n = 120,000) | AID 1242;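 active = inhibition above 30.3% in the primary screen of four-compound pools, then above 30% when the compound was retested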;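 also: compounds exposed to preformed 24 h biofilms for 48 h; the number belongs to the whole pool; some results filed as inactive read as strong as hits; inactives centre near 12; 0% = biofilm with clotrimazole alone and 100% = kill control; retested singly at about 60 µM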
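Test system: C. albicans CAF4-2 wild-type biofilms; buffer or medium: RPMI/MOPS medium, pH 7.0; schedule: 24 h biofilm formation, then 48 h compound exposure, 37 °C; detection: Alamar Blue fluorescence; measure: percent inhibition of biofilm viability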
An asterisk follows results filed as active. An excerpt; count on the stated rates, not on these rows.

For CCN(CC(=O)Nc1ccc([N+](=O)[O-])cc1OC)CC(=O)NC(C)(C)C the results were Calb biofilm kill 16.
`CCOC(=O)c1c(NC(=O)C2=C(C)NC(=S)NC2c2ccc(F)cc2)sc(C)c1C` (stereo not drawn) gave Calb biofilm kill 15.
`O=C1CN(c2cc(Cl)cc(Cl)c2)C(=O)CN1/N=C/c1cccnc1` gave Calb biofilm kill 15.
`COc1cc(N2C(=O)c3ccccc3C2=O)c(Cl)cc1C(=O)OCC(=O)N1CCOCC1` gave Calb biofilm kill 4.
`Cc1ccc(N2CCN(S(=O)(=O)N3CCCCC3)CC2)c(C)c1` gave Calb biofilm kill 9.
For COc1ccc(CC(=O)N2CCN=C2SCc2ccc([N+](=O)[O-])cc2)cc1 the results were Calb biofilm kill 7.
Screening Cc1ccc(C(=O)Nc2ccc([N+](=O)[O-])cn2)o1 returned Calb biofilm kill 14.
`Cc1ccccc1NC1=NCC(c2ccc([N+](=O)[O-])cc2)S1` (stereo not drawn) gave Calb biofilm kill -3.
Screening CCOC(=O)c1c(NC(=O)Nc2ccc(C)cc2)sc2c1CCN(C)C2 returned Calb biofilm kill 23.
Screening COc1ccc2nc(N3C(=O)CC(Cc4ccc(C)cc4)C3=O)sc2c1 (stereo not drawn) returned Calb biofilm kill 15.
`O=C(Nc1ccccc1)N1CCN(Cc2ccc(Cl)cc2)CC1` gave Calb biofilm kill 10.
For O=C(CN1C(=O)c2ccccc2C1=O)N1CCN(C2c3ccccc3-c3ccccc32)CC1 the results were Calb biofilm kill 6.
`CCOc1ccc(C(=O)Oc2ccc(NC(C)=O)cc2)cc1` gave Calb biofilm kill 10.
CC1CCN(c2ccc(C(=O)NCc3ccco3)cc2[N+](=O)[O-])CC1 was read as Calb biofilm kill 4.
For CCc1ccccc1NC(=O)c1cc(-c2ccc(F)cc2)on1 the results were Calb biofilm kill 13.
Screening COc1ccccc1N1CCN(C(=O)c2c(C)noc2C)CC1 returned Calb biofilm kill 29.
For CN(C)/C=C1/C(=O)N(c2ccc([N+](=O)[O-])cc2)N=C1c1ccccc1 the results were Calb biofilm kill 15.
CC1CCCN(C2=C(NS(=O)(=O)c3ccc(Cl)cc3)C(=O)c3ccccc3C2=O)C1 (stereo not drawn) was read as Calb biofilm kill 11.
Screening c1csc(C2CCCN2c2nc3nonc3nc2NC2CC2)n1 (stereo not drawn) returned Calb biofilm kill 16.
For O=C(COc1ccc(C2SCCS2)cc1)Nc1ccc(Cl)cc1 the results were Calb biofilm kill 14.
For O=C(CSc1nc(O)cc(=O)n1-c1ccccc1)Nc1ccc2c3c(cccc13)CC2 the results were Calb biofilm kill 17.
`Cc1c(NC2=NC(C)(C)Cc3ccccc32)c(=O)n(-c2ccccc2)n1C` gave Calb biofilm kill 16.
CC(=O)Nc1ccc2nc(CN3CCN(Cc4ccc(F)cc4)C(CCO)C3)ccc2c1 (stereo not drawn) was read as Calb biofilm kill 17.
`CCOC(=O)N1CCN(CC(O)c2ccccc2)CC1` (stereo not drawn) gave Calb biofilm kill 8.
CCCC/C(O)=C1\C(=O)CC(C)(C)CC1=NCCCCCC(=O)O was read as Calb biofilm kill -2.
Cc1ccc(/C=N\NC(=O)COc2ccc(C)cc2[N+](=O)[O-])cc1 was read as Calb biofilm kill 12.
For CCOC(=O)/C(=C/c1c(C)n(C)c2ccc([N+](=O)[O-])cc12)C(C)=O the results were Calb biofilm kill 7.
`NS(=O)(=O)c1cccc(NC(=O)Cc2ccc(Cl)c(Cl)c2)c1` gave Calb biofilm kill 9.
For CCN1/C(=C\c2ccc3cc(C)ccc3[n+]2CC)Sc2cc(C)c(C)cc21 the results were Calb biofilm kill 10.
`COc1ccc(CNC(=O)COc2ccc(C(=O)c3ccc(F)cc3)cc2)cc1` gave Calb biofilm kill 7.
`COc1ccc(S(=O)(=O)N2C(=O)/C(=C3\SC(N)=NC3=O)c3ccccc32)cc1` gave Calb biofilm kill 10.
`O=C(Cn1nnc(-c2ccccc2F)n1)OCC(=O)c1ccccc1` gave Calb biofilm kill 9.
Screening CCCNC(=O)c1ccc2c(=O)c(O)c(-c3ccc(OC)cc3)[nH]c2c1 returned Calb biofilm kill 14.
For Cc1ccc(/C=N/NC(=O)CSc2nc3ccccc3n2Cc2ccc(Cl)cc2)o1 the results were Calb biofilm kill 17.
Screening CSc1ccccc1NC(=O)c1cc(-c2cccnc2)nc2ccc(Br)cc12 returned Calb biofilm kill 10.
Cc1cc2cc(CNC(=O)Nc3ccccc3)ccc2[nH]1 was read as Calb biofilm kill 21.
CC1(C)CC(=O)C=C(N2CCOCC2)C1 was read as Calb biofilm kill 8.
`O=C(C1=C[C@@H](c2csc3ccccc23)C[C@@H](OCc2ccc(CO)cc2)O1)N1CCN(Cc2ccc3c(c2)OCO3)CC1` gave Calb biofilm kill 21.
Screening Cc1cccc(N(CC(=O)NCCSCc2ccccc2)S(C)(=O)=O)c1 returned Calb biofilm kill 25.
`CCOc1cc(/C=N/Nc2ncnc(Cl)c2N)ccc1O` gave Calb biofilm kill 17.
For Cc1ccc(C2=Nc3ccccc3SC(c3cccc([N+](=O)[O-])c3)C2)cc1 (stereo not drawn) the results were Calb biofilm kill 11.
`Cc1cc2cc3c(cc2nc1SCC(=O)O)CCC3` gave Calb biofilm kill 15.
Screening CC(=O)C1=C(O)C(=O)N(C)C1c1ccccc1[N+](=O)[O-] (stereo not drawn) returned Calb biofilm kill 16.
O=C(N/N=C/c1ccccc1[N+](=O)[O-])c1ccc2c(c1)OCCO2 was read as Calb biofilm kill 12.
`O=C(C[N+]1(CC#Cc2ccccc2)CCOCC1)c1ccccc1` gave Calb biofilm kill 6.
CN(C)c1ccc(N/C(=N\S(=O)(=O)c2cccs2)c2ccccc2)cc1 was read as Calb biofilm kill 14.
Screening O=C(C[n+]1ccc(C(=O)c2ccccc2)cc1)Nc1ccc(C(F)(F)F)cc1 returned Calb biofilm kill 12.
For O=C1c2cccc3cccc(c23)C(=O)N1c1ccncc1 the results were Calb biofilm kill 2.
For O=C(NCc1cccnc1)Nc1ccccc1 the results were Calb biofilm kill -8.
`Cc1ccc(Cl)cc1N1CCN(CC(=O)NC2CCCc3ccccc32)CC1` (stereo not drawn) gave Calb biofilm kill 5.
CCCNC(=O)Cn1nc(C(F)(F)F)c2c1CCCC2 was read as Calb biofilm kill 13.
Screening Cc1nc2c(sc3nc(N4CCOCC4)c4c(c32)CC(C)(C)OC4)c(-c2ccccc2)c1C(=O)O returned Calb biofilm kill 20.
COCCSc1nnc(NC(=O)c2ccc(NC(C)=O)cc2)s1 was read as Calb biofilm kill 25.
`Cc1cc(C)n(-c2cccc(F)n2)n1` gave Calb biofilm kill 10.
For CN(C)c1ccc(C(CN)c2c[nH]c3ccccc23)cc1 (stereo not drawn) the results were Calb biofilm kill 4.
COc1ccc(OC)c2sc(NNC(=O)C3COc4ccccc4O3)nc12 (stereo not drawn) was read as Calb biofilm kill 26.
O=C(c1ccccc1F)N1CCCC(c2ccccc2)C1 (stereo not drawn) was read as Calb biofilm kill 3.
O=C(N/N=C/c1ccccn1)c1cc(-c2ccncc2)nc2ccccc12 was read as Calb biofilm kill 8.
Cc1cc(C)c2[nH]c(O)c(N=NC(=O)c3cc4c(s3)CCCC4)c2c1 was read as Calb biofilm kill 19.
For C/C(=C\c1ccccc1)C(=O)N1CCN(c2cccc(C(F)(F)F)c2)CC1 the results were Calb biofilm kill 15.

Sorted by number of heavy atoms (smallest number first): part of the list above.
CC1(C)CC(=O)C=C(N2CCOCC2)C1 was read as Calb biofilm kill 8.
Screening Cc1ccc(C(=O)Nc2ccc([N+](=O)[O-])cn2)o1 returned Calb biofilm kill 14.
Screening CC(=O)C1=C(O)C(=O)N(C)C1c1ccccc1[N+](=O)[O-] (stereo not drawn) returned Calb biofilm kill 16.
For O=C1c2cccc3cccc(c23)C(=O)N1c1ccncc1 the results were Calb biofilm kill 2.
Screening COc1ccccc1N1CCN(C(=O)c2c(C)noc2C)CC1 returned Calb biofilm kill 29.
CCCC/C(O)=C1\C(=O)CC(C)(C)CC1=NCCCCCC(=O)O was read as Calb biofilm kill -2.
`O=C(Cn1nnc(-c2ccccc2F)n1)OCC(=O)c1ccccc1` gave Calb biofilm kill 9.
CN(C)c1ccc(N/C(=N\S(=O)(=O)c2cccs2)c2ccccc2)cc1 was read as Calb biofilm kill 14.
For COc1ccc(CC(=O)N2CCN=C2SCc2ccc([N+](=O)[O-])cc2)cc1 the results were Calb biofilm kill 7.
Screening CSc1ccccc1NC(=O)c1cc(-c2cccnc2)nc2ccc(Br)cc12 returned Calb biofilm kill 10.
`COc1ccc(CNC(=O)COc2ccc(C(=O)c3ccc(F)cc3)cc2)cc1` gave Calb biofilm kill 7.
For Cc1ccc(/C=N/NC(=O)CSc2nc3ccccc3n2Cc2ccc(Cl)cc2)o1 the results were Calb biofilm kill 17.
For O=C(CSc1nc(O)cc(=O)n1-c1ccccc1)Nc1ccc2c3c(cccc13)CC2 the results were Calb biofilm kill 17.
`COc1cc(N2C(=O)c3ccccc3C2=O)c(Cl)cc1C(=O)OCC(=O)N1CCOCC1` gave Calb biofilm kill 4.
Screening Cc1nc2c(sc3nc(N4CCOCC4)c4c(c32)CC(C)(C)OC4)c(-c2ccccc2)c1C(=O)O returned Calb biofilm kill 20.
`O=C(C1=C[C@@H](c2csc3ccccc23)C[C@@H](OCc2ccc(CO)cc2)O1)N1CCN(Cc2ccc3c(c2)OCO3)CC1` gave Calb biofilm kill 21.

(cont.)
For CCOC(=O)c1cc(-c2ccccc2)sc1NC(=O)COC(=O)c1ccc(Cl)c(S(N)(=O)=O)c1 the results were Calb biofilm kill -9.
CCCN=CC1=C(O)CC(c2ccccc2)CC1=O (stereo not drawn) was read as Calb biofilm kill 13.
`c1ccc(-c2ccc3nnnn3n2)cc1` gave Calb biofilm kill 24.
`CCCc1cc2c(cc1NC(=O)c1ccco1)OCO2` gave Calb biofilm kill 36.
`O=C(CSc1nccc(=O)[nH]1)NCc1ccco1` gave Calb biofilm kill 1.
O=Cc1c(-c2ccccc2)nc2ccccn12 was read as Calb biofilm kill 10.
CCOCC(=O)Nc1c(C)n(C)n(-c2ccccc2)c1=O was read as Calb biofilm kill 36.
For CCc1c(C)c(C#N)c2[nH]c3ccccc3n2c1=S the results were Calb biofilm kill 14.
`CC(=O)NC1C(=O)N=C(SCC(=O)Nc2cccc(Cl)c2)NC1=O` (stereo not drawn) gave Calb biofilm kill 4.
For O=[N+]([O-])c1c(NCCO)cc(N2CCCCC2)c2nonc12 the results were Calb biofilm kill 17.
For Cc1cccc(N(C)C(=S)Oc2ccc3ccccc3c2)c1 the results were Calb biofilm kill 18.
CCC(C)C(NC(=O)C1CCC(C)CC1)C(=O)NC1CCN(Cc2ccccc2)CC1 (stereo not drawn) was read as Calb biofilm kill 20.
`COc1cccc(C(=O)NCc2ccc3[nH]c(C)cc3c2)c1` gave Calb biofilm kill 1.
For COc1ccc(/C=N/Nc2nccnc2Cl)c(OC)c1 the results were Calb biofilm kill 6.
Screening Cc1ccc2c(Cl)cc(Cl)c(OCC(=O)NCCc3ccccn3)c2n1 returned Calb biofilm kill 21.
Screening COc1ccccc1C(=O)Nc1c(C)cc(Br)cc1C returned Calb biofilm kill 5.
Screening CCCCC(=O)NC(NC(=S)N1CCCCCC1)C(Cl)(Cl)Cl (stereo not drawn) returned Calb biofilm kill 14.
`Cc1ccc(CCNC(=O)CCS(=O)(=O)c2ccc(Br)cc2)cc1` gave Calb biofilm kill 12.
For COc1ccccc1OCC(=O)/C=C1/N(C)c2ccccc2C1(C)C the results were Calb biofilm kill 16.
Screening O=C(COc1ccc([N+](=O)[O-])cc1Cl)Nn1cnnc1 returned Calb biofilm kill -9.
O=C(CCCc1ccccc1)Nc1ccccn1 was read as Calb biofilm kill 10.
For COC(=O)c1sccc1NC(=O)C1C2C=CC(C2)C1C(=O)O (stereo not drawn) the results were Calb biofilm kill 12.
`Cc1cc(OCC(=O)N2CCOCC2)ccc1[N+](=O)[O-]` gave Calb biofilm kill 15.
`NC(=O)c1nsc(C(=O)N(c2ccc(Cl)cc2)C(C(=O)NCC2CCCO2)c2cccs2)c1N` (stereo not drawn) gave Calb biofilm kill 25.
Screening CCN(c1ccccc1)P(=O)(Nc1ccccc1)Nc1ccccc1 returned Calb biofilm kill 21.
For O=C(C1=C[C@@H](c2ccc(Br)cc2)C[C@@H](OCc2ccc(CO)cc2)O1)N1CCN(Cc2ccc3c(c2)OCO3)CC1 the results were Calb biofilm kill 16.
`Cc1cc([N+](=O)[O-])nn1CC(=O)Nc1ccc(Cl)cn1` gave Calb biofilm kill 2.
CCOC(=O)C1(Cc2ccc(Cl)cc2)CCN(Cc2nccn2CC)CC1 was read as Calb biofilm kill 14.
COCCNC(=O)C(=O)NCC1OCCN1C(=O)c1ccc(Cl)cc1 (stereo not drawn) was read as Calb biofilm kill 9.
`O=C(NCCc1nc2ccccc2[nH]1)/C(=C/c1ccc2c(c1)OCO2)NC(=O)c1ccccc1` gave Calb biofilm kill 12.
Screening COc1cc(NS(=O)(=O)c2ccc(NC(=O)/C=C/c3ccc([N+](=O)[O-])cc3)cc2)ncn1 returned Calb biofilm kill 20.
Screening Clc1ccc(N=c2ssnc2Cl)cc1 returned Calb biofilm kill 11.
For COc1cccc(C(=O)c2c[nH]c(C(=O)NCCCN(C)C)c2)c1 the results were Calb biofilm kill 16.
For CC1(C)C([N+](=O)[O-])C(c2ccccc2O)NC(c2ccccc2O)C1[N+](=O)[O-] (stereo not drawn) the results were Calb biofilm kill 15.
O=c1[nH]c(CSc2nc3ccccc3s2)nc2ccccc12 was read as Calb biofilm kill 9.
COCCNC(=O)c1ccc(CN2CCOCC2)cc1 was read as Calb biofilm kill 18.
For COc1ccc(CCNC(=O)CSc2nnc(Cc3cccn3C)n2C)cc1OC the results were Calb biofilm kill 15.
COc1cc(C(=O)O/N=C2/C=C(C)C(=O)C=C2C)cc(OC)c1OC was read as Calb biofilm kill 19.
N#C/C(=C/c1ccc(CNC(=O)C(=O)Nc2cc(Cl)cc(Cl)c2)o1)C(=O)NCc1cccnc1 was read as Calb biofilm kill 13.
`CN=C(C)/C(C(=O)OC)=C(/O)c1ccc(Cl)cc1Cl` gave Calb biofilm kill 14.
